# Screening results from PubChem BioAssay.
# Cruzain inh Det: blocks cruzain activity in presence of Triton detergent. P25779. purified cruzain, Z-FR-AMC fluorescence, 0.01% Triton. Potency, µM, for the others: max response, negative = inhibition, usual class: inhibitors. hit rate 0.43% among 200,000; active means well fitted curve in the direction sought with a large enough effect; inconclusive means small, poorly fitted or top-dose-only effect, or another doubt; inactive means no such curve, though single readings can be large; an effect the other way counts as inactive or inconclusive;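 further: plate controls were neutral wells for no effect and buffer without enzyme for full effect; nearly all actives have a fitted effect of over 40% in size; top concentration of the series not given in the record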
# Target sequence (P25779 123-467 limits assumed): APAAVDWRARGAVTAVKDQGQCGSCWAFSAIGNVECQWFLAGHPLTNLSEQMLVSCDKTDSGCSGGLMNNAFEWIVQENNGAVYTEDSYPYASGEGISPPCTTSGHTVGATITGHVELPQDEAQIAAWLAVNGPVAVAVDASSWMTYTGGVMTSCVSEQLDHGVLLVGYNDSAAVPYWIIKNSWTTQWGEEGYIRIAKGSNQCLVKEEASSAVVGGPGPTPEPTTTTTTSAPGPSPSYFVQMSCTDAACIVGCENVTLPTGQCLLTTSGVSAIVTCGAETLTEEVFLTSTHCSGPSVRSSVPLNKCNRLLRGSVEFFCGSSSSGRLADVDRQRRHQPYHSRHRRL
#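 Cysteine protease activity tested under reducing, mildly acidic conditions (100 mM sodium acetate pH 5.5, 5 mM DTT) plus 0.01% Triton X-100. Cruzain 1.5 nM; substrate Z-FR-AMC 2 uM; 15 min compound preincubation at room temperature.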
# RE007 growth inh: less growth of the S. pombe RE007 Vpr strain; S. pombe RE007 Vpr strain, BacTiter-Glo ATP luminescence, 24 h; control for the full effect not named in the record; Potency, µM (titrated, usually from 92.2 µM), for the others: at the highest dose activity change, negative = less growth; hit rate 0.21% among 360,000; AID 651644; active = well fitted falling curve with a large enough effect; inconclusive = small, poorly fitted or top-dose-only effect; inactive = no such curve, though single readings can be large or run the other way;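 further: on the % scale 0 is the no-effect control and ±100 the full control effect; nearly all actives have a fitted effect of over 50% in size; the assay follows cell death caused by Vpr and the record does not say whether a fall means rescue or toxicity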
#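 Fission yeast RE007 carrying one integrated HIV-1 vpr copy, seeded at OD 0.01 in PMG+AL medium with 23 nL pinned compound. Grown 24 h at 30 degrees; viability read by BacTiter-Glo luminescence after 5 min.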
# Marburg entry inh: Marburg virus entry inhibition | Potency, µM (top dose mostly 37.8 µM), without a hit: at the highest dose activity change, negative = inhibition, actives largely listed as inhibitors | Marburg virus pseudotyped entry inhibition, cell reporter; control for the full effect not named in the record; about a third of the inactives were read at about 46 µM | hit rate 1.8% among 300,000; active = well fitted inhibition curve with a large enough effect; inconclusive = small, poorly fitted or top-dose-only effect, or effect the other way; inactive = flat fitted curve, though single readings scatter; tested in HEK293 cells; about a fifth of its hits are not listed in these tables; further: on the % scale 0 is the no-effect control and ±100 the full control effect; luciferase read-out
# 2A StopGo: lowers the luciferase signal of an FMDV 2A StopGo reporter. human cells with a luciferase reporter of 2A StopGo recoding; control for the full effect not named in the record. Potency, µM (series often up to 57.9 µM), for inactives: at the top dose signal change, negative = less light. hit rate 1.2% among 410,000. AID 1159524; active = well fitted falling curve with a large enough effect; inconclusive = small, poorly fitted or top-dose-only effect; inactive = no such curve, though single readings can be large or run the other way; tested in HEK293T cells; further: on the % scale 0 is the no-effect control and ±100 the full control effect; nearly all actives have a fitted effect of over 45% in size; luciferase light after 4 h
# LASV entry inh: blocks Lassa virus binding to or entry into cells; Lassa virus pseudotype entry inhibition, cell reporter; control for the full effect not named in the record; AID 540256; Potency, µM (top dose mostly 37.9 µM), without a hit: at the top dose activity change, negative = inhibition, actives largely listed as inhibitors; hit rate 1.2% among 300,000; active means well fitted inhibition curve with a large enough effect; inconclusive means small, poorly fitted or top-dose-only effect, or effect the other way; inactive means flat fitted curve, though single readings scatter; tested in HEK293 cells; further: on the % scale 0 is the no-effect control and ±100 the full control effect; nearly all actives have a fitted effect of over 50% in size; luciferase read-out
# SARS PLP yeast: inhibitors of SARS-CoV papain-like protease in yeast; S. cerevisiae expressing SARS-CoV PLpro, growth rescue; control for the full effect not named in the record; Potency, µM (titrated, usually from 32.9 µM), inactives show top-dose activity, positive = growth rescue; hit rate 0.19% among 330,000; further: 0% is about no effect; nearly all actives have a fitted effect of over 55% in size; growth read by luminescence after 48 h
# Cruzain inh noDet: blocks cruzain activity in detergent-free assay; Potency, µM, for inactives: max response, negative = inhibition, most hits filed as inhibitors; purified cruzain, Z-FR-AMC fluorescence, no detergent; P25779; hit rate 2.3% among 200,000; active means well fitted curve in the direction sought with a large enough effect; inconclusive means small, poorly fitted or top-dose-only effect, or another doubt; inactive means no such curve, though single readings can be large; an effect the other way counts as inactive or inconclusive;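 further: plate controls were enzyme without inhibitor for no effect and buffer without enzyme for full effect; nearly all actives have a fitted effect of over 40% in size; top concentration of the series not given in the record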
#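 Purified cruzain at 1.5 nM, pre-incubated 15 min with compound at room temperature in 100 mM sodium acetate pH 5.5, 5 mM DTT, 0.00005% Triton X-100. Reaction started with 2 uM Z-FR-AMC; AMC fluorescence increase over 60 s gives rate.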
# NS1 function inh: inhibitors of influenza NS1 protein function; Potency, µM (highest dose often 46.1 µM), without a hit: at the highest dose activity, positive = more growth; hit rate 0.4% among 270,000; S. cerevisiae slowed by influenza A NS1, growth recovery by OD600; further: actives are rising curves; nearly all actives have a fitted effect of over 50% in size
#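 Compounds were scored for reversing the slow growth caused by influenza A NS1 in S. cerevisiae, measured by optical density at 600 nm. Assay medium contained 2% galactose at pH 6.0; NS1-free yeast of the same strain were the positive control.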
# An asterisk follows results filed as active; ? = inconclusive; . = not tested or not shown; & = joins results of further samples; [ ] = dose if it differs, or a comment. Unless noted, the call rests on the fitted dose curve; in most records, active means well fitted rising curve with a large enough effect; inconclusive means small, poorly fitted or top-dose-only effect; inactive means no such curve, though single readings can be large or run the other way. Potency means the concentration at half of the fitted maximal effect. Random draw from the library. About 4.7% of those tested had a hit in this group.
SMILES,Cruzain inh Det,RE007 growth inh,Marburg entry inh,2A StopGo,LASV entry inh,SARS PLP yeast,Cruzain inh noDet,NS1 function inh
Cc1c(Cl)cnc(NC(=O)COC(=O)c2ccncc2)c1Cl,.,5.5%,?,-13.6%,8.5%,-3.2%,.,.
COc1ccccc1C(=O)Nc1cccc(N(C)S(C)(=O)=O)c1,0.4%,18.6%,-5.9%,-0.3%,12.3%,-2.2%,8.6%,-0.7%
Cc1occc1C(=O)Nc1cccc(Cn2cccn2)c1,-0.7%,0.7%,?,23.4%,-1.9%,-4.3%,5.0%,-4.8%
O=c1[nH]c(=O)n(-c2ccccc2)c2c1C(C(F)(F)F)(C(F)(F)F)N=C(CCC1CCCCC1)N2,-4.0%,32.1%,?,25.1µM*,11.2µM*,15.6%,12.0%,8.1%
Cc1cccc(NS(=O)(=O)c2ccc(OCC(=O)N3CCCC3)cc2)c1,.,1.4%,-7.8%,27.0%,-16.0%,-0.7%,.,7.8%
O=C(CSc1nc(O)cc(=O)n1-c1ccccc1)N1CCCCC1,-1.7%,-9.2%,14.7%&-6.1%,-6.3%,?,6.1%,-13.9%,?
Cc1ccccc1N(CC(=O)Nc1ccccc1C(=O)O)S(C)(=O)=O,0.2%,-6.5%,-0.8%,46.4%[activator],-0.6%,1.7%,-4.3%,-5.9%
Cc1ccc(-c2nnc(N3CCCCC3)c3ccccc23)cc1S(=O)(=O)NCC1CCCO1 (stereo unspecified),-2.8%,-8.4%,-21.0%,-8.6%,?,1.0%,?,-13.3%
COC(=O)C(C)N(C(=O)c1cccc2ccccc12)c1c(C)cccc1C (stereo unspecified),-14.9%,4.9%,?,?,-8.0%,-10.6%,-2.2%,-11.1%
COc1ccccc1NC(=S)N(Cc1ccc(C)cc1)Cc1cccnc1,.,-24.0%,7.0%[46.1 µM],0.7%,-2.8%,2.5%,.,.
N#CCC(=O)Nc1nc(-c2ccc3c(c2)OCCO3)cs1,.,4.0%,.,56.9%[activator],.,0.2%,.,17.5%
N=c1n(CC(=O)c2cccs2)c2ccccc2n1Cc1ccccc1,.,-3.8%,.,-18.4%,.,0.5%,.,12.9%
Cc1ccc(S(=O)(=O)N(Cc2nccn2C)C(C)C)cc1,3.1%,-5.5%,0.6%,23.3%,3.7%,-8.0%,-7.6%,-7.4%
CN(C)C(=O)Oc1ccc(Br)cc1C(=O)Nc1ccc(F)c(Cl)c1,.,-0.6%,-26.6%[46.1 µM],-12.8%,-28.4%[46.1 µM],-5.4%,.,-40.3%
N#Cc1c(-c2ccccc2)cc(-c2cccs2)nc1SCC(=O)O,.,12.6%,?,-14.4%,8.5%,-0.8%,.,12.0%
COc1cc(NS(=O)(=O)c2ccc3c(c2)NC(=O)CO3)cc(OC)c1,.,10.2%,-24.6%[46.1 µM],15.8%,-6.0%[46.1 µM],4.0%,.,14.0%
c1ccc(Oc2ccc(-n3cnnn3)cc2)cc1,-6.1%,-7.8%,0.5%,5.3%,3.8%,-5.0%,2.7%,-24.5%
CC1(c2ccc(Cl)cc2)NC(=O)N(CC(=O)c2ccc3c(c2)OCO3)C1=O (stereo unspecified),.,-8.8%,0.2%,?,6.0%,-6.6%,.,9.9%
Cc1cccc(Nc2ncnc3c2cnn3Cc2ccccc2)c1,.,0.4%,.,3.8%,.,-0.6%,.,-8.4%
O=C(c1ccc(OC2CCN(Cc3ccccc3O)CC2)cc1)N1CCCCC1,.,-8.9%,13.8%,-9.4%,12.6%,?,.,-3.8%
O=C(COc1ccccc1)Nc1nc(-c2ccc(S(=O)(=O)N3CCOCC3)cc2)cs1,-4.4%,5.9%,?,14.1µM*,?,-14.5%,?,2.3%
CC(=O)Nc1ccc(S(=O)(=O)N2CCN(C)CC2)cc1,-2.9%,-10.2%,-2.6%,29.3%,1.7%,-2.8%,-1.9%,2.0%
CC(C)c1ccc(NC(=O)CSc2nc(=O)n(Cc3ccccn3)c3c2CCC3)cc1,0.5%,.,.,0.0%,-34.6%[46.1 µM],.,7.3%,.
CCn1cc(S(=O)(=O)c2ccccc2)c(=O)c2cc(F)c(F)cc21,-3.7%,.,3.7%[46.1 µM],-9.0%,2.6%[46.1 µM],.,-1.8%,.
COc1cc(C2NC(=O)CCC2[N+](=O)[O-])cc(OC)c1OC (stereo unspecified),.,3.8%,-1.6%,-13.6%,.,1.6%,.,-0.3%
CC(=O)C1C(c2ccc(Br)cc2)C2C(C)=NN=C2CC1(C)O (stereo unspecified),-0.4%,32.0%,.,2.1%,.,-6.2%,-6.1%,4.4%
COc1cc(CCC(=O)Nc2ccc(Br)c(C(F)(F)F)c2)cc(OC)c1OC,-11.0%,-2.2%,?,?,?,-3.2%,8.6%,-19.3%
Cc1ccc(CCNC(=O)C2CCC(=O)N2C2CCCC2)cc1 (stereo unspecified),2.8%,2.7%,18.7%,15.2%,-0.9%,19.3%,3.9%,1.2%
NC(=O)[C@@H]1CCCNc2c(F)cc([N+](=O)[O-])cc2C(=O)N[C@@H](CO)C(=O)NCC(=O)N1,-6.5%,22.4%,0.3%,-13.6%,-2.0%,-4.4%,3.1%,-0.7%
CSCCC(NC(=O)C1CCC(C)CC1)C(=O)NCCN1CCC(C)CC1 (stereo unspecified),.,-12.3%,?,-3.9%,13.8%[46.1 µM],-2.0%,.,.
NC(=O)CN1C(=O)C(=O)N(Cc2ccccc2Cl)C1=O,.,11.3%,.,-25.4%,.,0.9%,.,-3.7%
O=C1N(c2cccc(Cl)c2)C(c2ccccc2)N2CCCN12 (stereo unspecified),-0.5%,37.4%,?,-12.8%,24.4%,?,-9.2%,-9.6%
O=S(=O)(N1CCOCC1)N1CCCN(S(=O)(=O)N2CCOCC2)CC1,2.2%,-15.7%,-23.4%,-16.1%,-0.5%,1.1%,-8.6%,0.1%
CC(=O)c1ccccc1NC(=O)COC(=O)C1=NN(c2ccccc2)C(=O)CC1,.,10.5%,5.7%[46.1 µM],-19.8%,2.0%,-2.9%,.,.
COC(=O)c1ccc(N2CCC(c3cc(-c4ccc(OC)cc4)n[nH]3)CC2)c([N+](=O)[O-])c1,-1.6%,6.5%,?,?,?,-6.3%,?,5.6%
O=C(NNC(=S)NC(=O)c1ccccc1Cl)c1cccc([N+](=O)[O-])c1,.,5.9%,9.2%,-13.4%,-2.0%,-2.4%,.,-72.4%
Cc1ccc(Sc2cnc3ccccc3n2)cc1,-4.1%,-20.9%,?,47.8%[activator],?,6.0%,5.8%,-1.3%
Cc1cc(C)c2c(N=CN(C)C)c(C(=O)N3CCN(c4ncccn4)CC3)sc2n1,5.4%,11.9%,-26.0%[46.1 µM],-4.8%,-7.3%,-0.7%,6.5%,-17.8%
COc1ccc(OCc2nnc(SCC(=O)Nc3ccccc3F)o2)cc1,.,7.5%,-13.9%[46.1 µM],1.9%,-3.1%[46.1 µM],-3.6%,.,0.8%
Cc1cc(C(=O)N/N=C/c2ccc([N+](=O)[O-])cc2)c2ccccc2n1,.,-16.4%,.,4.0%,.,0.2%,.,2.6%

# Continued; the last two above are carried over.
SMILES,Cruzain inh Det,RE007 growth inh,Marburg entry inh,2A StopGo,LASV entry inh,SARS PLP yeast,Cruzain inh noDet,NS1 function inh
COc1ccc(OCc2nnc(SCC(=O)Nc3ccccc3F)o2)cc1,.,7.5%,-13.9%[46.1 µM],1.9%,-3.1%[46.1 µM],-3.6%,.,0.8%
Cc1cc(C(=O)N/N=C/c2ccc([N+](=O)[O-])cc2)c2ccccc2n1,.,-16.4%,.,4.0%,.,0.2%,.,2.6%
Cc1cccc(NC(=O)c2ccc(S(=O)(=O)N3CCOCC3)cc2)c1C,.,1.3%,27.3%[46.1 µM],-6.5%,7.7%,-2.0%,.,-41.4%
O=C(NCc1cccc(Cl)c1)c1ccc(NC(=O)N2CCSc3ccccc32)cc1,-6.0%,.,?,-14.8%,?,.,?,.
N#Cc1c2c(nc(N)c1-c1ccccc1)CCCCC2,-3.3%,-25.6%,8.1%,-19.5%,8.7%,-3.6%,?,0.0%
O=C(NC1CCCc2c1cnn2-c1ccc(F)cc1F)c1cnccn1 (stereo unspecified),.,30.8%,?,?,-20.2%,-0.1%,.,-1.5%
C=CCOC(=O)/C(=C/c1cccnc1)NC(=O)c1ccccc1,.,27.6%,.,2.0%,.,0.3%,.,10.4%
CC1(C)CC(=O)C2=C(C1)OC(N)=C(C#N)C2c1ccccc1[N+](=O)[O-] (stereo unspecified),.,-2.0%,2.5%[46.1 µM],-16.0%,2.0%,0.2%,.,-1.0%
Cc1cccc(C)c1NC(=O)CNc1ncnc2sc(C)c(C)c12,0.6%,4.3%,?,0.0%,5.5%,-23.4%,-1.6%,-7.4%
Cc1ccc(-c2nnc(SCC(=O)Nc3nc4c(s3)CCCC4)n2C)cc1,1.3%,-3.0%,1.0%,4.8%,-8.3%,5.5%,-15.1%,-2.2%
CC(=O)NCCC(=O)Nc1cccc(S(=O)(=O)N(C)c2ccccc2)c1,0.7%,-3.4%,?,-3.1%,20.0%,7.9%,-3.5%,2.8%
CC1(C)CC(=O)c2c(n(S(=O)(=O)c3ccccc3)c3ccc(NS(=O)(=O)c4ccccc4)cc23)C1,-2.3%,0.8%,?,23.7%,?,6.8%,31.6µM*,14.9%
Cc1ccccc1NC(=S)NCc1ccc2c(c1)OCO2,1.7%,1.8%,?,29.5%,-4.6%,7.9%,-5.6%,-0.8%
COc1cc2c(cc1OC)C(c1ccc3c(c1)OCO3)C1=C(CC(C)(C)CC1=O)N2 (stereo unspecified),-4.7%,1.1%,-27.0%,-9.9%,-4.8%,-1.3%,?,-0.8%
Cc1cc(C)c([N+](=O)[O-])cc1NC(=O)CCSc1ccccc1Cl,-3.9%,-5.7%,-24.2%,-17.8%,-10.1%,14.4%,5.9%,4.6%
